Screens as filed in PubChem.
MT1-MMP act inh = blockers of MT1-MMP proenzyme processing, primary screen, HT1080 RFP-PRO-GFP cells, GFP/RFP fluorescence; Matrix metalloproteinase-14 (Homo sapiens), P50281; GFP/RFP ratio fluorescence, overnight; percent of plate control window, DMSO zero; GFP/RFP ratio change, % at 20 µM; hit rate 0.061% among 360,000; AID 651647, 2012;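 active = GFP/RFP ratio change of at least 30% with cell ATP level not reduced by more than half and red fluorescence within 50% of control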; note: strong numbers were not always called active
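Test system: HT1080 cells expressing an RFP-PRO-GFP fluorescent reporter construct / Compound dosing: single-point 20 µM compound, 1% DMSO / Schedule: cells overnight before dosing, compound overnight, 37 °C, 5% CO2 / Evaluation: GFP/RFP fluorescence ratio / Control set: DMSO and RFP-L50D-GFP cell wells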
Yeast UUG start = modulators of yeast start codon fidelity, primary screen, whole organism, S. cerevisiae, single point, plate reader | S. cerevisiae UUG-firefly luciferase reporter, luminescence/redox ratio | activity score, % at 18.7 µM | hit rate 0.13% among 350,000 | AID 602363, 2012;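 active = replicate mean at a twofold rise or more, about +100% in these data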;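 note: firefly luciferase made from a UUG start codon reports start codon fidelity; reporter light over untreated wells divided by growth signal over untreated wells; some hits fall short of that in this replicate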
MT1-MMP act inh RFP = recorded beside MT1-MMP act inh, whose call it bears; RFP signal change, %; measured here: RFP expression control read;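 0 = vehicle wells; hits needed this value within 50% of zero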
* hit, by the source's call. Not all compounds are listed. The share of hits here may be higher or lower than overall.

SMILES	MT1-MMP act inh	MT1-MMP act inh RFP	Yeast UUG start
CCOc1ccc(C(c2c(NC(=O)c3ccco3)sc(C)c2C)N2CCOCC2)cc1 (configuration not stated)	0	-3	-13
CC(C)(C)N(Cc1ccccc1)C(=O)COC(=O)/C=C/c1ccc2c(c1)OCO2	2	3	-3
CN1CCC2CC1c1cc(-c3ccc(C(F)(F)F)cc3)ccc12 (configuration not stated)	-3	-1	-14
O=c1[nH]cnc2c1ccn2C1OC(CO)C(O)C1O (configuration not stated)	-4	2	-11
Cc1ccc(CSc2ccc(S(=O)(=O)N3CCCC3)cn2)cc1	0	-8	-14
CC(=O)Nc1ccc(NC(=O)COC(=O)c2ccc(S(=O)(=O)N(C)c3ccccc3)cc2)cc1	1	6	-12
CCN(C(=O)COC(=O)C1COc2ccccc2O1)c1c(N)n(Cc2ccccc2)c(=O)[nH]c1=O (configuration not stated)	-4	2	-12
CCOC(=O)C1(C)CCCN1C(=O)c1ccc(N(C)C)cc1 (configuration not stated)	-6	3	-24
CS(=O)(=O)c1ccc(Cl)c(NC(=O)CSc2n[nH]c(-c3cccs3)n2)c1	-1	-4	8
CCOC(=O)C1(C)CCN1C(=O)c1ccc(SC(F)(F)F)cc1 (configuration not stated)	1	-3	-22
CN1CCN(c2ccc(CNC(=O)c3cccc4c(-c5ccc(F)c(F)c5)coc34)cc2)CC1	1	0	4
C#CCOCCOCCOCCNc1nc(N2CCN(C(=O)[C@H](CO)n3cc([C@@H](N)C(C)C)nn3)CC2)nc(N2CCN(C(=O)[C@H](CCCCN)n3cc([C@@H](N)[C@H](C)CC)nn3)CC2)n1	-2	0	21
CCc1ccc([C@@H]2CC(=O)[C@@H]3CN(S(=O)(=O)c4ccc(Cl)cc4)[C@H](c4ccc(C)cc4)C[C@@H]3N2S(=O)(=O)c2ccc(C)cc2)cc1	5	3	-16
Cc1cccc(C)c1C(O)c1ncc(-c2ccc(F)cc2)[nH]1 (configuration not stated)	1	0	-36
CCN(CC)CCOc1ccc(C=NNc2nc3c([nH]2)c(=O)n(C)c(=O)n3C)cc1	-3	2	-19
O=C(/C=C/[C@H]1O[C@@H](n2ccc(=O)[nH]c2=O)[C@H](O)[C@@H]1O)NCc1cccc2ccccc12	-1	5	1
COc1ccc(Cl)cc1NC(=O)C1CCN(C(=O)Nc2ccccc2)CC1	-2	2	15
CC1CC(C)(C)CC2(C1)NC(=O)N(CC(=O)N1CCN(S(=O)(=O)c3ccc(F)c(F)c3F)CC1)C2=O (configuration not stated)	-4	-6	-17
CCOc1ccccc1-n1nnnc1SCC(=O)NCC1(N2CCOCC2)CCCCC1	2	-3	-20
C=CCn1c(SCC(=O)Nc2cccc(S(N)(=O)=O)c2)nnc1C1CCCCC1	2	-4	16
CC1NC(=O)c2cc3ccccc3cc2-n2c1nc1cc(Cl)ccc1c2=O (configuration not stated)	9	3	6
CN(CC(=O)Nc1ccccc1C(F)(F)F)C(=O)c1ccc2c(=O)n3c(nc2c1)CCC3	7	0	-3
CCN(CC)CCOc1ccc(-c2c(C)c3c(ccc4ccccc43)oc2=O)cc1	0	-1	-22
COc1cccc(NC(=O)CN(C)C(=O)CN2C(=O)NC(C)(c3ccc(C)cc3)C2=O)c1 (configuration not stated)	6	3	1
O=C(NCc1ccccn1)c1cc(S(=O)(=O)N2CCCCC2)ccc1Cl	3	-1	-14
CCOc1cc(C(=O)N(CC)CC(=O)Nc2c(F)cccc2F)ccc1OCC(=O)N1CCOCC1	-5	3	-3
CCCCn1c(N)c(N(CCOC)C(=O)COC(=O)CNC(=O)c2ccc(Cl)c(Cl)c2)c(=O)[nH]c1=O	-3	1	12
COc1ccc(NC(=O)CN(C)C(=O)c2oc3c(ccc4ccccc43)c2C)cc1	2	1	-17
CSCC[C@H](NC(=O)Cc1c(C)c2cc3c(C)c(C)oc3cc2oc1=O)C(=O)N[C@@H](C(=O)O)c1ccccc1	5	4	-10
COc1ccccc1-c1n[nH]nc1C1=CC(=O)CC(C)(C)C1	4	2	2
COc1ccc(-c2cc(CCC(=O)N3CCN(c4cc(C)ccc4C)CC3)[nH]n2)cc1	-3	-22	-23
COc1ccc(NC(=O)c2ccc(-c3ccc(C(C)=O)cc3)o2)cn1	-7	0	-18
O=C1[C@H]2[C@@H](c3ccc(C(F)(F)F)cc3)N[C@]3(CCCN(Cc4ccc(F)cc4)C3=O)[C@H]2C(=O)N1Cc1ccccc1	3	-9	-7
Cc1cc(O)c(Sc2ncn[nH]2)cc1NS(=O)(=O)c1ccc(Cl)cc1	8	-5	-14
C/C(Sc1nnc(Cc2ccccc2)o1)=C(\O)c1ccccc1	-2	0	-4
CC(C)Oc1cc(F)ccc1-c1cc(C(=O)NC2CCCCC2)[nH]n1	-6	-9	-15
CC1(C(=O)NS(=O)(=O)Cc2cccc(Cl)c2)CCN1C(=O)C1(c2ccc(Cl)cc2)CCC1 (configuration not stated)	-6	1	-14
Cc1ccc(S(=O)(=O)N2CCOCC2)cc1C(=O)OCC(=O)NC1CCCC(C)C1C (configuration not stated)	-4	-15	2
Cc1cc(C(=O)N2CCCC(N3CCN(c4ccccc4C)CC3)C2)no1 (configuration not stated)	-3	-1	-21
COc1ccc(Cc2nnc(SC)n2-c2ccc(F)cc2)cc1OC	2	4	-8
CC1(C)CC(=O)C=C(c2cn[nH]n2)C1	2	-5	-13
CC1CCC2(CC1)NC(=O)N(CC(=O)Nc1ccc(F)cc1)C2=O (configuration not stated)	-4	2	-17
COc1ccc(OCC(=O)NC(=O)c2ccccc2)c([N+](=O)[O-])c1	0	3	2
CC1(C)NC(=O)N(CC(=O)N2CCN(c3ccc([N+](=O)[O-])cc3)CC2)C1=O	-2	-6	-12
Cc1cccc(NC(=O)CN2CCN(C(=O)CN3C(=O)NC4(CC(C)CC(C)(C)C4)C3=O)CC2)c1C (configuration not stated)	1	-12	0
COc1ccc(CCNC(=O)Cc2ccc(NS(=O)(=O)c3ccc(F)cc3)cc2)cc1OC	2	-5	3
CSc1ncnc2c1ncn2CCCN(C)Cc1ccco1	3	1	-13
COc1cc(OC)cc(C(=O)OC(C)C(=O)NC2CCCc3ccccc32)c1 (configuration not stated)	0	1	-13
CC(C)CC1C(=O)N(Cc2cn(CCC3OCCO3)nn2)CCS(=O)(=O)N1Cc1ccc(-c2ccc(F)nc2)cc1 (configuration not stated)	-4	-4	-5
CC1=C(C(=O)N2CCCCCC2)CC(CC(=O)NC2CC2)C(=O)N1Cc1ccccc1 (configuration not stated)	2	5	-3

Other records
SMILES	MT1-MMP act inh	MT1-MMP act inh RFP	Yeast UUG start
Cc1ccc(C)c(S(=O)(=O)N(C)c2ccc(OC(=O)C3CCN(C(=O)Nc4ccccc4)CC3)cc2)c1	4	3	-2
NC(=S)NN=C1CSSC1	-29	9	-19
COCCn1c(SCC(=O)NC(=O)NC2CCCC2)nc2ccccc2c1=O	-4	-12	-16
COc1ccc(C(NC(=O)C2CCN(CCOc3ccc(F)cc3)CC2)c2cccs2)cc1 (configuration not stated)	7	-2	6
Cn1cc(-c2coc3c(C(=O)NCc4cccnc4)cccc23)cn1	5	-23	-2
CCC1CCCCN1CC(=O)Nc1ccc2c(c1)OCCO2 (configuration not stated)	-1	1	6
NC(=O)C1CCN(C(=O)c2ccc(F)c(S(=O)(=O)N3CCOCC3)c2)CC1	2	3	-4
CCOC(=O)c1c(C)[nH]c(C(=O)N(C)CC(=O)Nc2ccc(OC)cc2)c1C	-2	0	-9
CCCN(CC1CC1)c1cc2c(c3c1ccn3C)C1CCC2C1 (configuration not stated)	5	0	-13
COc1cc(OC)cc(C(=O)NNC(=O)C(CCC(N)=O)NS(=O)(=O)c2ccc(Cl)cc2)c1 (configuration not stated)	1	3	-14
CCOC(=O)C1=CCC(c2ccc(C)cc2)N(S(=O)(=O)c2ccc(C)cc2)C1 (configuration not stated)	-2	-9	-6
Cc1ccc(NC(=O)CSc2ccccc2)cc1S(=O)(=O)N1CCCCC1	-4	-20	-8
CN(C(=O)CSc1nnc(-c2ccc(C(C)(C)C)cc2)n1C)C1CCS(=O)(=O)C1 (configuration not stated)	5	-2	-5
O=S(=O)(Nc1cc(S(=O)(=O)N2CCOCC2)ccc1NCC1CCCO1)c1ccccc1F (configuration not stated)	-5	2	-10
O=C(CN1C(=O)NC(Cc2c[nH]c3ccccc23)C1=O)Nc1ccccc1C(F)(F)F (configuration not stated)	-1	4	24
O=C(CSc1nnc(Nc2ccccc2F)s1)NC(=O)CN1CCCC1=O	2	3	-14
Fc1ccc(-c2nc3c4ccccc4ccn3c2Cc2ccccc2C(F)(F)F)cc1	3	2	-2
COc1cc(C2C(c3ccccc3)C(c3cc(OC)cc(=O)o3)C2c2ccccc2)oc(=O)c1 (configuration not stated)	-6	-12	-21
COC(=O)C(C(=O)OC)C1C=CCN(C(C)=O)C1 (configuration not stated)	0	9	-2
CCOC(=O)c1ccc(NC(=O)C2CC(=O)N(c3ccc4c(c3)OCCO4)C2)cc1 (configuration not stated)	2	-3	-9
CCn1c(SCC(=O)c2c(N)n(C3CC3)c(=O)[nH]c2=O)nnc1-c1ccoc1C	2	-2	-17
CCNC(=O)N(C)c1c(CC)nc2ccc(C(=O)N3CCN(S(=O)(=O)CC)CC3)cn12	3	3	1
CCOC(=O)C1=CCC(c2cccn2C(=O)OC(C)(C)C)N(S(=O)(=O)c2ccc(C)cc2)C1 (configuration not stated)	-1	-1	-19
O=C(Oc1ccccc1)c1ccccc1C(=O)Oc1ccccc1	1	2	-14
COc1ccc(-c2cc3nc(-c4ccccc4)cc(N4CCN(C(=O)c5ccoc5)CC4)n3n2)cc1	-2	-10	0
CCOC(=O)C1=C(C)NC(C)=C(C(=O)OCC)C1C(=O)OCC(=O)N1CCCCC1C (configuration not stated)	-1	0	0

Nothing new here: an excerpt of the list.
SMILES	MT1-MMP act inh	MT1-MMP act inh RFP	Yeast UUG start
CCn1c(SCC(=O)c2c(N)n(C3CC3)c(=O)[nH]c2=O)nnc1-c1ccoc1C	2	-2	-17
CCNC(=O)N(C)c1c(CC)nc2ccc(C(=O)N3CCN(S(=O)(=O)CC)CC3)cn12	3	3	1

Compounds listed so far containing an aryl methoxy group:
SMILES	MT1-MMP act inh	MT1-MMP act inh RFP	Yeast UUG start
COc1ccc(Cl)cc1NC(=O)C1CCN(C(=O)Nc2ccccc2)CC1	-2	2	15
COc1cccc(NC(=O)CN(C)C(=O)CN2C(=O)NC(C)(c3ccc(C)cc3)C2=O)c1 (configuration not stated)	6	3	1
COc1ccc(NC(=O)CN(C)C(=O)c2oc3c(ccc4ccccc43)c2C)cc1	2	1	-17
COc1ccccc1-c1n[nH]nc1C1=CC(=O)CC(C)(C)C1	4	2	2
COc1ccc(-c2cc(CCC(=O)N3CCN(c4cc(C)ccc4C)CC3)[nH]n2)cc1	-3	-22	-23
COc1ccc(NC(=O)c2ccc(-c3ccc(C(C)=O)cc3)o2)cn1	-7	0	-18
COc1ccc(Cc2nnc(SC)n2-c2ccc(F)cc2)cc1OC	2	4	-8
COc1ccc(OCC(=O)NC(=O)c2ccccc2)c([N+](=O)[O-])c1	0	3	2
COc1ccc(CCNC(=O)Cc2ccc(NS(=O)(=O)c3ccc(F)cc3)cc2)cc1OC	2	-5	3
COc1cc(OC)cc(C(=O)OC(C)C(=O)NC2CCCc3ccccc32)c1 (configuration not stated)	0	1	-13
COc1ccc(C(NC(=O)C2CCN(CCOc3ccc(F)cc3)CC2)c2cccs2)cc1 (configuration not stated)	7	-2	6
CCOC(=O)c1c(C)[nH]c(C(=O)N(C)CC(=O)Nc2ccc(OC)cc2)c1C	-2	0	-9
COc1cc(OC)cc(C(=O)NNC(=O)C(CCC(N)=O)NS(=O)(=O)c2ccc(Cl)cc2)c1 (configuration not stated)	1	3	-14
COc1cc(C2C(c3ccccc3)C(c3cc(OC)cc(=O)o3)C2c2ccccc2)oc(=O)c1 (configuration not stated)	-6	-12	-21
COc1ccc(-c2cc3nc(-c4ccccc4)cc(N4CCN(C(=O)c5ccoc5)CC4)n3n2)cc1	-2	-10	0
